# Screening results as filed in PubChem.
# Ecoli rRNA inh – inhibits bacterial ribosomal RNA function over humanized ribosomes; GFP signal change (wild-type ribosome), % (test concentration not listed); 350,000 compounds, 1.6% hits; E. coli WT GFP vs humanized-ribosome RFP mutants, fluorescence, 24 h; hits give low values; DMSO median 0, no signal -100;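 active = significant combined selectivity score with lowered wild-type GFP, culture density cut under 30%, mutant RFP and density less affected; inactive = any of these conditions unmet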; also: one replicate is shown; some compounds called inactive have numbers as strong as hits
# HNF4A DNA FP – change in binding of human HNF4 alpha to DNA; P41235; activity change, % at 10 µM; HNF4a-FITC DNA binding, fluorescence polarization, 1 h; 360,000 compounds, 0.3% hits; in the data active = activity change above about 30%, passing the limit was not always enough;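 also: controls were the assay level and a saturating level of protein; the project sought stronger binding though the title names inhibitors; some compounds called inactive have numbers as strong as hits; positive values seem to mean higher polarization but the record does not say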
# Target sequence (P41235 whole entry, looked up): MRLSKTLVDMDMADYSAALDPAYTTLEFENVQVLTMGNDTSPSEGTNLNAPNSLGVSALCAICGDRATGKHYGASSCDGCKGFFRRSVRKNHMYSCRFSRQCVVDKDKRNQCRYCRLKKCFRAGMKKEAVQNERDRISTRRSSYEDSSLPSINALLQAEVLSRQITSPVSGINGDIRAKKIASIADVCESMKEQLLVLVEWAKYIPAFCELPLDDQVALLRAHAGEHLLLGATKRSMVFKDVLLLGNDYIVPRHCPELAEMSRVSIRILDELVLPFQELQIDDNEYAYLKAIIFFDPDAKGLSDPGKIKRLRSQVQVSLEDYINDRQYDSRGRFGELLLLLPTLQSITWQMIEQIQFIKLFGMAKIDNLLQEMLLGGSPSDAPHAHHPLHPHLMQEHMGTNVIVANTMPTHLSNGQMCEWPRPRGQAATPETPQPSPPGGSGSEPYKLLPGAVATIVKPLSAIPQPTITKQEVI
# UCH37 inh – human UCH37 deubiquitinating enzyme inhibition; inhibition, % (concentration not given with the values); 330,000 compounds, 0.33% hits; Q9Y5K5; purified proteasome/UCH37, Ub-AMC cleavage fluorescence; AID 588478;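 active = mean of two replicates above 20%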;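 also: 0% = compound-free wells with enzyme and 100% = wells lacking proteasome; stock transfer was 100 nL into about 20 µL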
#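 Material: Human UCH37 enzyme supplied as purified proteasome complex | Schedule: 30 min preincubation with enzyme, 25 min cleavage at room temperature | Detection: AMC fluorescence 355/460 nm | Measure: % inhibition of Ub-AMC cleavage fluorescence | Controls: Wells without proteasome as full block, compound-free enzyme plus substrate as uninhibited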
# B2AR ag – activates human beta-2 adrenergic receptor causing internalization | P07550 | Am2.2-beta2AR cells, FAP receptor internalization, flow cytometry; reference of the scale not given here | response, % (no concentration beside the values) | 340,000 compounds, 0.43% hits;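 active = response above a set limit, near 3 SD of response in nonfluorescent compounds, cut at about 42% in these data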;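 also: stock transfer was 100 nL into about 11 µL; a reference agonist was the positive control; negative values mostly stem from fluorescent compounds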
# Target sequence (P07550 whole entry, looked up): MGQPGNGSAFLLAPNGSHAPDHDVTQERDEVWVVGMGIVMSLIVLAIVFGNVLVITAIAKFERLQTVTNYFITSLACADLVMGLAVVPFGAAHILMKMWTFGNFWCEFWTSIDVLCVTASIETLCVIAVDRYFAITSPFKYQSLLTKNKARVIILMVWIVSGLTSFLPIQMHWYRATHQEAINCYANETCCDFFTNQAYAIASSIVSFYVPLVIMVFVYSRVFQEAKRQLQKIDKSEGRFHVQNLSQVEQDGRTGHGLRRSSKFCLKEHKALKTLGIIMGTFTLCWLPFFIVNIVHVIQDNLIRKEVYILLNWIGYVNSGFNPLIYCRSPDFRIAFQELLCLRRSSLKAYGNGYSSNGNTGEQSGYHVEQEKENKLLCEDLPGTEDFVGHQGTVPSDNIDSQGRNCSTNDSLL
# Ecoli growth – inhibitors of Escherichia coli growth; OD600, 23 h; hits give low values; 330,000 compounds, 0.21% hits; OD600 absorbance (no concentration beside the values);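 active = OD600 absorbance below the run mean of sample wells minus 3.6 SD, in any replicate, cut at about 0.56 in these data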;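 also: stock transfer was 300 nL into about 60 µL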
# ALR inh – blocks human ALR sulfhydryl oxidase activity; P55789; inhibition, % (concentration not given with the values); 290,000 compounds, 3.8% hits; purified ALR, DTT oxidation, H2O2 HRP-luminol luminescence; AID 485317;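 active = mean and each replicate at 75% or more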;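 also: stock transfer was 7.5 nL into about 7.5 µL; 0% = neutral wells and 100% = wells with inactivated enzyme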
# FGF22 binding – FGF22 (human) thermal shift binding | Q9HCT0 | recombinant FGF22 thermal shift, SYPRO orange fluorescence; percent of sucrose octasulfate shift, DMSO zero | calls only at 9.99 µM | 340,000 compounds, 1.5% hits;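 active = melting point raised past a set limit in the mean and every replicate; three in four hits are not shown here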
# Target sequence (Q9HCT0 whole entry, looked up): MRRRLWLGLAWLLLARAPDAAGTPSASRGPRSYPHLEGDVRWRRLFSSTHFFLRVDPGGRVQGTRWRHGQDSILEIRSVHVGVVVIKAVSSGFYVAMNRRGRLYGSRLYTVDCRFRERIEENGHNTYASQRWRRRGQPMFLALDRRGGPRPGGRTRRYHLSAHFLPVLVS
# Ecoli rRNA inh OD600 – second read-out of Ecoli rRNA inh, no call of its own (marks repeat the call); OD600 change, %; measured here: OD600 growth;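 optical density of the mix in the first replicate; 0 = DMSO median and -100 = no signal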
# Ecoli rRNA inh RFP – second read-out of Ecoli rRNA inh, no call of its own (marks repeat the call); RFP signal change, %; measured here: RFP humanized mutant strains;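 first replicate; 0 = DMSO median and -100 = no signal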
# * marks the source's active call; other numbers are inactive results; i = inactive; · = not tested or not shown; & = joins results of further samples. Only part of the results is shown; rates above refer to the full screens.
Ecoli growth	Ecoli rRNA inh	FGF22 binding	HNF4A DNA FP	UCH37 inh	B2AR ag	Ecoli rRNA inh RFP	Ecoli rRNA inh OD600	SMILES	ALR inh
0.61	0	i	3.1	-6.5	-5	-1.2	1	Cc1nn(CC(=O)NC2CCC(C)CC2)c(=O)c(C#N)c1C (stereo not drawn)	-14
0.72	23	i	-1.4	3.6	5	-2.2	14	Cc1ccc(S(=O)(=O)NC(C)C(=O)NC2CC2)cc1 (stereo not drawn)	-7
·	3	i	4.5	·	-4	-1.5	4	Cc1cc(C(=O)N/N=C2\CCCc3ccccc32)c(C)o1	-3
0.69	1	i	-2.8	3.7	-6	1.4	3	COc1ccc(N(C)S(=O)(=O)c2ccc3c(c2)NC(=O)CO3)c(OC)c1	-12
0.69	13	i	0.0	3.0	-17	-1.1	17	Cc1cccc(N2CCN(Cc3cn(C)nc3-c3ccccc3F)CC2)n1	14
0.7	10	i	6.0	5.9	-4	5.1	15	O=C(COc1ccccc1Cl)NCc1nc(-c2ccccc2)no1	7
0.69	·	·	0.2	4.0	-9	·	·	O=C(Nc1ccc(OCC(=O)N2CCN(S(=O)(=O)c3ccccc3)CC2)cc1)c1ccco1	-25
0.72	·	·	-0.6	-1.9	5	·	·	Cc1ccccc1Cn1c(C(C)O)nc2ccccc21 (stereo not drawn)	2
0.65	·	·	2.7	3.2	-11	·	·	CCn1c(SCC(=O)c2cccs2)nnc1-c1ccco1	62
0.75	·	i	-0.8	2.6	13	·	·	CC1CCc2nc(NC(=O)C3COc4ccccc4O3)sc2C1 (stereo not drawn)	0
·	-55	i	7.8	·	·	-19	-76	COc1ccc(CC(N)c2csc(NC(=O)Nc3ccccc3Oc3ccccc3)n2)cc1 (stereo not drawn)	·
0.73	6	i	-2.2	-79	14	3.8	2	COc1cc(C(=O)N=c2sc3c(C)ccc(OC)c3n2C)cc(OC)c1OC	-3
0.73	·	·	18	1.0	-8	·	·	CS(=O)(=O)N(CCc1ccccc1)CC(=O)NCc1cccnc1	3
0.7	-17	i	-0.5	4.9	-4	-0.3	-12	N=C1C(c2nc3ccccc3[nH]2)=C(O)CN1NC(=O)c1c[nH]c2ccccc12	·
0.63	1	·	1.3	0.9	-4	7.1	-9	CCCCCN(C(=O)CCC(=O)OCC(=O)N(C)Cc1ccc(C)cc1)c1c(N)n(CCCC)c(=O)[nH]c1=O	-1
·	10	i	4.5	·	-5	0.6	0	Cc1ccc(S(=O)(=O)N(C)/N=C/c2ccc(C(=O)O)cc2)cc1	·
0.67	4	i	-2.3	2.8	-5	-1.2	4	Cc1nn(S(=O)(=O)N2CCOCC2)c(C)c1Br	-5
0.78	·	·	-0.7	11	-2	·	·	C=CCOC(=O)C1=C(C)NC2(O)c3ccccc3C(=O)C12O (stereo not drawn)	·
0.68	·	·	4.5	0.9	3	·	·	CC(C)(C)Nc1nc(C(N)=O)nc(N2CCOCC2)n1	-3
0.69	17	i	-0.9	0.5	-2	-1.1	10	CN(CC(=O)Nc1ccccc1C(F)(F)F)C(=O)CSc1nnc(N)s1	3
·	-4&0	i	0.3	6.0	0	-0.5&-0.7	-11&-11	COc1ccc(S(=O)(=O)Nc2ccc3c(c2)C(=O)N([C@H](C)CO)C[C@H](C)[C@@H](CN(C)C(=O)Nc2ccc(C(F)(F)F)cc2)O3)cc1	-9
·	3	i	-1.1	-2.3	-11	11	-7	O[C@H]1c2ccccc2[C@H](Cc2cncs2)[C@@H]1Br	-7
0.65	·	·	-4.1	-2.4	0	·	·	Cc1cccn2c(=O)c(C=Nc3ccccc3)c(NCc3ccco3)nc12	·
0.68	-2	i	3.8	11	7	1.5	3	CC(=O)Nc1ccc(S(=O)(=O)N2CCN(c3ccc([N+](=O)[O-])c(NCCN4CCOCC4)c3)CC2)cc1	-6
0.78	7	i	-5.0	5.8	3	0.7	9	CCN1CCN(CC(=O)NC2CCCC2)C(=O)C1=O	1
0.66	0	i	109	7.9	-411	2.0	-4	COc1ccc(O)c(/C=C2/SC(=S)N(Cc3ccccc3)C2=O)c1	3
0.71	·	·	0.2	-0.1	-10	·	·	COc1ccc(-n2nnnc2-c2ccccc2)cc1	-4
0.72	·	·	3.6	-1.1	-7	·	·	Cc1ccc(C)n1NC(=O)c1cccc(Cl)c1	-7
0.67	9	i	1.1	0.3	-7	2.1	9	CC1(C2CC2)NC(=O)N(CC(=O)NCC(=O)Nc2ccc(F)c(F)c2F)C1=O (stereo not drawn)	2
0.65	-11	i	0.6	-102	-7	1.2	-2	Cc1coc2cc3oc(=O)c(CCC(=O)N[C@@H](CCCNC(N)=O)C(=O)O)c(C)c3cc12	·
0.72	·	·	-1.4	4.6	2	·	·	COc1cc(NC(=S)NN2CCN(C)CC2)cc(OC)c1	·
0.67	·	·	0.1	-3.4	1	·	·	CCNC(=O)CN(c1ccccc1OC)S(=O)(=O)c1cccs1	-2
0.67	-6	i	0.4	2.7	1	0.2	1	O=C(O)C1CCCCC1C(=O)NCc1ccc(Cl)c(Cl)c1 (stereo not drawn)	0
·	6	i	-0.7	·	·	14	4	Cc1ccc(CSC2=NCCN2S(=O)(=O)c2ccc(C)cc2)cc1	·
0.66	10	i	3.5	-0.1	0	-6.1	-6	CCn1nnnc1-c1ccc(OC)c(S(=O)(=O)Nc2ccc(S(N)(=O)=O)cc2)c1	0
0.67	-6	i	-1.4	2.0	-4	5.3	-35	Cc1ccc(S(=O)(=O)N2CCN(C(=O)CSC(=S)N3CCCC3)CC2)c(C)c1	·
·	1	i	-2.6	·	·	1.7	2	Cc1cc(S(=O)(=O)Nc2ncnc3sccc23)ccc1F	·
0.69	·	·	8.3	0.1	5	·	·	CN1CCN(C(=O)c2ccc(CN3CCOCC3)cc2)CC1	-13
0.64	9	i	0.5	-0.5	0	-3.5	2	Cc1ccc(-c2noc(C3CCCN(S(=O)(=O)c4ccc(S(=O)(=O)N(C)C)cc4)C3)n2)o1 (stereo not drawn)	-10
0.66	·	·	·	3.0	·	·	·	CCOc1ccccc1C(=O)Nc1cc(C(=O)NCC(C)C)ccc1Cl	-1

# The final 5 entries of the section before come first, to join the parts.
Ecoli growth	Ecoli rRNA inh	FGF22 binding	HNF4A DNA FP	UCH37 inh	B2AR ag	Ecoli rRNA inh RFP	Ecoli rRNA inh OD600	SMILES	ALR inh
0.67	-6	i	-1.4	2.0	-4	5.3	-35	Cc1ccc(S(=O)(=O)N2CCN(C(=O)CSC(=S)N3CCCC3)CC2)c(C)c1	·
·	1	i	-2.6	·	·	1.7	2	Cc1cc(S(=O)(=O)Nc2ncnc3sccc23)ccc1F	·
0.69	·	·	8.3	0.1	5	·	·	CN1CCN(C(=O)c2ccc(CN3CCOCC3)cc2)CC1	-13
0.64	9	i	0.5	-0.5	0	-3.5	2	Cc1ccc(-c2noc(C3CCCN(S(=O)(=O)c4ccc(S(=O)(=O)N(C)C)cc4)C3)n2)o1 (stereo not drawn)	-10
0.66	·	·	·	3.0	·	·	·	CCOc1ccccc1C(=O)Nc1cc(C(=O)NCC(C)C)ccc1Cl	-1
0.66	-48	i	-0.8	-0.6	-10	13	-60	CCCCn1c(=O)[nH]c(=O)c2c1nc(-c1ccccc1F)n2Cc1ccccc1OC	2
0.71	5	i	1.3	0.6	1	-1.1	3	CCOC(=O)N1CCN(C(=O)c2ccccc2NC(=O)c2ccccc2Cl)CC1	4
0.68	·	·	-2.8	0.7	2	·	·	O=S(=O)(c1ccc(Cl)cc1)c1ccccn1	-2
0.69	7	i	3.2	0.6	-5	-1.1	5	CCC(C)C(=O)Nc1cc([N+](=O)[O-])ccc1Cl (stereo not drawn)	-28
0.71	0	i	0.4	0.0	1	-0.2	10	O=C(NCC1OCCCN1S(=O)(=O)c1cc(F)ccc1F)C(=O)NC1CCCC1 (stereo not drawn)	-1
0.73	·	·	-1.1	3.2	11	·	·	COc1ccc(CCN2C(=O)c3[nH]nc(-c4ccccc4O)c3C2c2ccccc2)cc1OC (stereo not drawn)	3
0.62	8	i	-3.1	0.7	-2	-2.1	11	CCN1CCCC1CNS(=O)(=O)c1ccc(F)c(Cl)c1 (stereo not drawn)	-4
0.6	·	i	-7.1	7.3	2	·	·	O=C(Oc1ccc([N+](=O)[O-])cc1)C1CC(=O)N(c2ccc3c(c2)OCCO3)C1 (stereo not drawn)	-4
0.69	·	·	4.3	-3.4	25	·	·	COc1ccc(-c2cc(C(F)(F)F)nc(S(=O)(=O)CCC(=O)N3CCOCC3)n2)cc1	90*
0.66	8	i	0.2	3.8	-3	0.6	10	CN(CC(=O)Nc1ccc(Cl)cc1)C1CCCCC1	-3
0.69	·	·	-0.8	2.4	6	·	·	Cc1ccc(S(=O)(=O)N2CCC(C(=O)N[C@@H](C)C(=O)NC3CCCCC3)CC2)cc1	·
0.69	·	·	-2.7	0.5	9	·	·	CCC(=O)NC(NC(=O)CC)C(Cl)Cl	3
0.67	-26*	i	-1.5	-20	2	-11*	-11*	CCCc1ccc(-c2ccc(/C=C/C(=O)O)cc2)nc1	45
0.7	-10	i	1.7	4.8	3	-4.0	-19	CC12CCC(C(S(=O)(=O)Nc3ccccc3)C1=O)C2(C)C (stereo not drawn)	·
0.68	·	·	2.5	-0.6	2	·	·	O=C(CSc1ccccn1)N1CCN(c2cccc(Cl)c2)CC1	-7
0.66	6	i	3.5	1.7	-8	-0.6	11	N/C(=N\OC(=O)c1cccc(F)c1)c1ccccn1	-1
0.65	4	i	0.4	3.5	14	-1.1	8	COCCn1c(=O)[nH]c2cc(C(=O)Nc3cc(OC)c(OC)c(OC)c3)ccc2c1=O	-2
0.66	6	i	1.2	-9.7	2	1.4	12	O=C(NN=Cc1cccc2ccccc12)C(=O)NN=Cc1cccc2ccccc12	·
0.64	-9	i	0.6	2.2	2	-2.0	-7	COc1ccc(CN2CCN(C(=O)C3CCC(CNS(=O)(=O)c4ccccc4)CC3)CC2)c(OC)c1OC (stereo not drawn)	-12
0.7	1	i	0.1	2.0	22	-4.4	1	CCOC(=O)c1c(-c2ccc(F)cc2)csc1NC(=O)CN1C(=O)NC2(CCCCC2C)C1=O (stereo not drawn)	·
0.72	·	·	4.7	5.2	2	·	·	O=C1c2[nH]nc(-c3ccccc3O)c2C(c2ccc(F)cc2)N1CC1CCCO1 (stereo not drawn)	31
0.72	·	·	1.4	1.3	-10	·	·	CC(C)(C)N(NC(=O)Nc1ccc(F)cc1)C(=O)c1ccccc1	2
0.72	·	·	-2.1	-1.6	7	·	·	CC(C)NS(=O)(=O)c1ccc(OCC(=O)Nc2ccc3c(c2)OCO3)c(Cl)c1	-5
0.67	-6	i	0.7	1.4	-8	-0.8	-5	O=C(Cc1cccc(C(F)(F)F)c1)NCc1cccc(Cl)c1	·
0.69	23	i	3.9	6.1	-4	1.3	13	COc1ccc(Nc2ccncc2[N+](=O)[O-])cc1	-5
0.69	8	i	-0.6	-0.3	5	-1.1	3	CC(=O)Nc1ccc(C(=O)OCC(=O)/C(C#N)=C(\C)N)cc1	-8

# A second format for 2 compounds above.
molecule	Ecoli growth	Ecoli rRNA inh	FGF22 binding	HNF4A DNA FP	UCH37 inh	B2AR ag	Ecoli rRNA inh RFP	Ecoli rRNA inh OD600	ALR inh
O=C(Cc1cccc(C(F)(F)F)c1)NCc1cccc(Cl)c1	0.67	-6	i	0.7	1.4	-8	-0.8	-5	·
COc1ccc(Nc2ccncc2[N+](=O)[O-])cc1	0.69	23	i	3.9	6.1	-4	1.3	13	-5
